2A firefly: Primary qHTS Assay for Foot and Mouth Disease Virus Antivirals against NCGC Sytravon and CBC Compound Libraries: Firefly Luciferase Signal; Potency, µM (series often up to 57.5 µM), inactives show top-dose signal change, negative = less light; AID 1745856, 2022; HEK cells with a luciferase reporter of 2A StopGo recoding; actives 0.23% (n = 120,000); active = well fitted falling curve with a large enough effect; inconclusive = small, poorly fitted or top-dose-only effect; inactive = no such curve, though single readings can be large or run the other way; note: nearly all actives have a fitted effect of over 60% in size; overnight with compound
2A Renilla: Primary qHTS Assay for Foot and Mouth Disease Virus Antivirals against NCGC Sytravon and CBC Compound Libraries: Renilla Luciferase Signal; HEK cells with a luciferase reporter of 2A StopGo recoding; actives 0.32% (n = 120,000); Potency, µM (series often up to 57.5 µM), inactives show at the highest dose signal change, negative = less light; active means well fitted falling curve with a large enough effect; inconclusive means small, poorly fitted or top-dose-only effect; inactive means no such curve, though single readings can be large or run the other way; note: nearly all actives have a fitted effect of over 55% in size; overnight with compound
An asterisk follows results filed as active; ? = inconclusive; & = joins results of further samples; [ ] = another dose, or the depositor's remark. % is set by controls: 0 for no effect and ±100 for the full control effect; potency is the fitted concentration of half-maximal effect.

#	mol	2A firefly	2A Renilla
1	CCCNC(=S)Nc1cc(Cl)c(N)c(Cl)c1	4.2%	128.3%[activator]
2	COCCN(CCOC)Cc1cc(=O)oc2cc(C)c(O)cc12	18.8%&19.6%	3.7%&1.8%
3	CCc1ccc(C2=NN(CCC(=O)NCCc3ccccc3)C(=O)CC2)cc1	-1.1%	11.8%
4	C=CCOc1ccc(NC(=O)c2ccncc2)cc1	0.0%	?
5	CCCS(=O)(=O)N1CC(=O)N(c2ccc(C)cc2C)C(C)(C(=O)NC2CCCCCC2)C1 (stereo not given)	11.5%	15.2%
6	CN(Cc1ccccc1)Cc1c(O)ccc2c(=O)c(-c3ccccc3)c(C(F)(F)F)oc12	14.3%	-7.4%
7	Cc1ccc(C)c(CN2CCCN(Cc3cc(C)ccc3C)S2(=O)=O)c1	-7.6%	6.1%
8	Cc1ccc(F)cc1NC(=O)Cc1c[nH]c2ccccc12	24.7%	31.9%[activator]
9	COc1cc(OC)c2cc(C(=O)NCCC(=O)Nc3ccc4c(c3)OCCO4)n(C)c2c1	13.3%	41.5%[activator]
10	COC(=O)c1nnn(-c2ccc(Br)cc2)c1C(=O)OC	-5.9%	-20.8%
11	CN(C)C(CNC(=O)c1cc(=O)[nH]c2ccccc12)c1ccccc1 (stereo not given)	12.2%	-1.9%
12	O=C(Nc1nc2n(n1)C(c1ccccc1)C=C(c1ccccc1)N2)c1ccc(Cl)c([N+](=O)[O-])c1 (stereo not given)	-8.1%	-15.7%
13	CN(C1CCCCC1)S(=O)(=O)c1ccc2c(c1)c(=O)c(C(=O)N1CCN(c3ccccc3F)CC1)cn2C	-8.9%	-4.3%
14	Cc1cccc(N2CCN(S(=O)(=O)c3c(C(=O)N4CCC(C)CC4)c(C)n(C)c3C)CC2)c1C	-23.8%	20.5%
15	CCn1cnc2c1c(=O)n(CC(=O)Nc1cccc(C(C)=O)c1)c(=O)n2Cc1ccccc1	?	?
16	O=C(NCCc1ccccc1)c1c[nH]c2ccc(S(=O)(=O)Nc3ccccc3F)cc2c1=O	13.8%	6.7%
17	Cc1c(-c2ccc(Cl)cc2)c(=O)oc2ccc(OC(=O)N(C)C)cc12	53.6%[activator]	14.5%
18	N#Cc1cccc(NC(=O)COC(=O)c2ccc3ccccc3n2)c1	0.3%	-12.3%
19	Cc1cccc(Nc2c(-c3cccs3)nc3nc(C)cc(C)n23)c1	95.8%[activator]	21.7%
20	O=C(O)Cn1cc(C(C(=O)O)N2CCN(Cc3cccnc3)CC2)c2ccc(Cl)cc21 (stereo not given)	-16.3%	-20.5%
21	Cc1c(NC(=O)Nc2ccc(Cl)c(Cl)c2)sc2nc3n(c(=O)c12)CCC(C)CC3 (stereo not given)	-13.1%	-5.2%
22	COc1ccc(C2C(C(=O)OC(C)C)=C(C)Nc3nc4ccccc4n32)cc1 (stereo not given)	81.0%[activator]	46.5%
23	CCn1cnc2c1c(=O)n(CC(=O)OCc1ccc(C(C)C)cc1)c(=O)n2Cc1ccccc1	-2.0%	-0.8%
24	CCOc1ccc(-n2nc(CO)c(C(=O)NCc3cccnc3)n2)cc1	22.4%	0.9%
25	O=C(O)CCc1ccc(S(=O)(=O)Nc2ccc3c(c2)CCC3)cc1	21.1%	122.9%[activator]
26	Cc1ccc(S(=O)(=O)N(C)C)cc1C(=O)OC(C)C(=O)c1ccccc1 (stereo not given)	-1.0%	18.8%
27	C(=Nc1ccccc1N=Cc1cccs1)c1cccs1	64.2%[activator]	-21.3%
28	O=C(Cc1ccccc1)Nc1cc(-c2nc3cc(Cl)ccc3o2)ccc1Cl	15.0%	-11.6%
29	Oc1ccc(Nc2nc(-c3ccc(Cl)cc3)nc3ccccc23)cc1	16.5%	0.0%
30	CN1CCN(c2c(F)cc3c(=O)c(C(=O)O)cn4c3c2OCN4C)CC1	-20.5%[27 µM]	-10.0%[23.8 µM]
31	Cc1ccccc1C(=O)Nc1ccc(OCc2cc(=O)n3cccc(C)c3n2)cc1	-22.0%	32.7%[activator]
32	Cc1cccc(C(=O)Nc2cccc(OCc3cc(=O)n4ccccc4n3)c2)c1	-15.6%	-11.7%
33	CC1(C)CC(NCCC(=O)NC2CC(C)(C)NC(C)(C)C2)CC(C)(C)N1	9.7%	-1.5%
34	Cc1ccc(CNC(=O)c2cc(NS(=O)(=O)c3ccc(C)cc3)ccn2)cc1	-7.5%	-2.9%
35	CC(C)(C)c1nc(CN2CCCC2)cs1	-12.7%	1.2%
36	COC(=O)c1ccc(Cn2nnc3c(=O)[nH]c(C4CCCN(S(=O)(=O)c5cccc(Cl)c5)C4)nc32)cc1 (stereo not given)	-14.8%	-7.1%
37	CC(C)Cn1c(/C=C/c2ccc(F)cc2)nc2ccccc21	341.9%[activator]	15.4%
38	COc1cccc(-c2nc(SCC(=O)NCC3CCCO3)c(-c3ccc(C)cc3)[nH]2)c1 (stereo not given)	-14.1%	-2.5%
39	Cc1ccc(C(=O)NC2(C(F)(F)F)N=C(c3ccccc3)N(C3CCCCC3)C2=O)cc1 (stereo not given)	-3.5%	43.8%[activator]
40	Cc1cc(-c2nc3c(c(=O)[nH]c(=O)n3Cc3ccccc3)n2CC2CCCO2)cc(C)c1O (stereo not given)	9.0%	6.0%

Retrieved by compound from the list above (two):
#	mol	2A firefly	2A Renilla
36	COC(=O)c1ccc(Cn2nnc3c(=O)[nH]c(C4CCCN(S(=O)(=O)c5cccc(Cl)c5)C4)nc32)cc1 (stereo not given)	-14.8%	-7.1%
38	COc1cccc(-c2nc(SCC(=O)NCC3CCCO3)c(-c3ccc(C)cc3)[nH]2)c1 (stereo not given)	-14.1%	-2.5%

The listing continues.
#	mol	2A firefly	2A Renilla
41	OC(CC#CCN1CCCCCC1)(c1ccccc1)c1ccc(-c2ccccc2)cc1 (stereo not given)	?	?
42	Cc1ccc2oc(C(=O)NCC(c3ccc(Cl)cc3)N3CCOCC3)c(C)c2c1 (stereo not given)	-7.1%	-6.6%
43	COc1cc2c(cc1NC(=O)c1ccccc1C)n(C)c(=O)n2C	23.0%	16.7%
44	CS(=O)(=O)c1ccccc1NC(=O)CSc1nc(C2CC2)n(-c2ccccc2)n1	2.3%	32.0%[activator]
45	CCN(c1ccccc1)S(=O)(=O)c1nnc(NC(=O)COc2ccc(OC)cc2)s1	-11.2%	-20.0%
46	Cc1cc(C)cc(NC(=O)Cn2nnc(-c3ccccc3F)n2)c1	1.1%	-5.1%
47	Cc1ccc(N(C(C)C(=O)Nc2cccc(Cl)c2C)S(C)(=O)=O)cc1C (stereo not given)	0.6%	11.4%
48	CC(C)CNc1nc(-c2ccc3c(c2)CCCN3S(C)(=O)=O)cs1	196.7%[activator]	15.0%
49	O=C1CSC(c2cccc(C(F)(F)F)c2)N1c1ccc(I)cc1 (stereo not given)	?	?
50	O=C(Nc1ccccc1)c1ccc(NN=C2CCCCC2)c([N+](=O)[O-])c1	135.2%[activator]	39.9%[activator]
51	CCCSc1nc2c(c(=O)[nH]c(=O)n2C)n1Cc1ccccc1Cl	-4.4%	-9.0%
52	CSc1ccccc1NC(=O)CN(C)C(C)C(=O)Nc1ccc(SC(F)F)cc1 (stereo not given)	?	-35.6%
53	COc1ccc(CCN2C(=O)c3[nH]nc(-c4ccccc4O)c3C2c2ccccc2)cc1 (stereo not given)	4.1%	5.7%
54	O=C(Nc1ccc(F)cc1F)N(Cc1cccc(O)c1)C1CCC(O)CC1 (stereo not given)	8.2%	-8.8%
55	CCOC(=O)C1CCCN(C(=O)c2ccc(-n3ccc4ccccc43)s2)C1 (stereo not given)	-12.7%	-6.7%
56	COc1cccc(/C=C/C(=O)NC2CCCC2)c1OC	185.0%[activator]	93.2%[activator]
57	CC(C)CNC(=O)c1ccc(Cn2cnc3ccccc3c2=O)cc1	43.2%[activator]	15.5%
58	O=C(Nc1ccc(F)c(Cl)c1)N1Cc2cccn2-c2ccccc21	-4.9%	-10.7%
59	CCc1ccc2c(c1)-c1ccccc1S(=O)(=O)N2CC(=O)N1CCC(C)CC1	0.0%	137.2%[activator]
60	Cc1oc2ncn(CC(C)C)c(=O)c2c1C(=O)Nc1ccc(Cl)cn1	0.9%	2.2%
61	Cc1ccc(Nc2nc(NCc3ccco3)c3ccccc3n2)cc1	-0.5%	?
62	CCCn1nc(C(=O)NCC(c2ccccc2)N2CCCC2)ccc1=O (stereo not given)	0.0%	-15.9%
63	O=C(Nc1cc(F)ccc1F)C12CC3CC(CC(Cl)(C3)C1)C2	0.6%	-0.5%[1.06 µM]
64	Cc1cccc(CN2C(=O)c3ccccc3Sc3ccc(C(=O)NCc4cccs4)cc32)c1	-25.4%	-3.2%
65	Cc1ccc(C)c(OCCn2c(CN(C)C(=O)c3ccco3)nc3ccccc32)c1	-3.5%	6.7%
66	CCCCSc1nnc(-c2c[nH]c3ccccc23)n1C1CC1	44.2%[activator]	3.5%
67	CCC(C(=O)NC(C)C)c1ccccc1 (stereo not given)	-5.6%	-14.7%
68	CCNC(=O)NC(=O)C(C)N(C)Cc1ccco1 (stereo not given)	-0.8%	3.2%
69	CCc1ccccc1Nc1ncnc2c1cnn2-c1ccccc1	16.2%	-0.4%
70	C[N+]1=C(N)NC2=C3CCCCC3n3c(=O)n(-c4ccccc4)c(=O)n3C2C1 (stereo not given)	-3.9%	-1.9%
71	COc1ccccc1NC(=O)c1cnc(SCC(=O)N2CCOCC2)n(C)c1=O	10.1%	-10.3%
72	Cc1ccccc1NC(=O)CSc1nc2nccnc2c(=O)n1CCc1ccccc1	-5.1%	-11.7%
73	O=C(CCc1cn(Cc2ccc(F)cc2)c2ccccc12)NCCc1cccs1	?	-21.0%
74	CCCCn1c(C)c(C)c(S(=O)(=O)c2ccc(OC)cc2)c1NC(=O)c1ccco1	-14.7%	27.8%
75	O=C(CCc1nc2cccnc2n1Cc1cccs1)Nc1cccc(C(F)(F)F)c1	-24.5%	2.4%
76	CCOC(=O)C1CCN(C(=O)C(C)OC(=O)c2n[nH]c(=O)c3ccccc23)CC1 (stereo not given)	-3.9%	0.3%
77	Clc1cccc(-n2cc(-c3ccccc3)c3c(NC4CCCC4)ncnc32)c1	-2.4%	0.1%
78	CC(=O)c1[nH]c2ccccc2c1C	17.6%	15.6%
79	CCOc1cc(CNC(=O)c2ccc3c(c2)nc2n3CCCCC2)ccc1OC	1.7%	36.7%[activator]
80	Cc1ccc(NC(=O)N2CC3CCCN3c3ccccc32)cc1C (stereo not given)	0.0%	-6.5%

Record cards (already shown). Order of screens: 2A firefly, 2A Renilla
CC(C)CNC(=O)c1ccc(Cn2cnc3ccccc3c2=O)cc1 reads 43.2%[activator], 15.5%
COC(=O)c1nnn(-c2ccc(Br)cc2)c1C(=O)OC reads -5.9%, -20.8%

The results go on:
#	mol	2A firefly	2A Renilla
81	COc1ccc(CN(C(=O)c2ccc(C#N)cc2)C2CC2)cc1	7.1%	14.0%
82	Fc1ccccc1-c1ccc(CNCc2ccccc2)o1	41.2%[activator]	-4.4%
83	O=C(Nc1ccc(Oc2ccccc2)cc1)c1cc(=O)[nH]c2ccccc12	15.3%	19.0%
84	Cc1nn(Cc2ccc(F)cc2)c(C)c1NC(=O)c1cc(CC(C)C)on1	?	25.1µM*
85	COc1ccc(Cn2c(SCC(=O)Nc3ccc(OC)cc3)nc3ccccc32)cc1	-30.6%	-1.3%
86	CCc1cccc(C)c1Nc1c(-c2cccs2)nc2ncccn12	-11.7%	-15.5%
87	Cn1c2c(c(=O)n(C)c1=O)C(c1cccc(O)c1)CC(=O)N2 (stereo not given)	-11.6%	-11.0%
88	CN(C(=O)c1cn(Cc2ccccc2)c2ccccc12)C1CCS(=O)(=O)C1 (stereo not given)	-17.4%	3.5%
89	O=C(c1ccc2c(c1)N(Cc1ccc(Cl)cc1)C(=O)c1ccccc1S2=O)N1CCC(Cc2ccccc2)CC1 (stereo not given)	?	-7.7%
90	Brc1ccc(-c2noc(CC(c3ccccc3)c3ccccc3)n2)cc1	0.0%	1.9%
91	O=C(NCCNC(=O)C1CC1)c1c[nH]c2ccccc12	-0.8%	-0.5%
92	Cc1ccc(-n2c(CC3C(=O)Nc4ccccc43)nc3ccccc3c2=O)cc1 (stereo not given)	-24.8%	-2.1%
93	CCCc1c(C)nc(Nc2nc(C)c3cccc(OC)c3n2)[nH]c1=O	2.0%	-7.4%
94	CN1CCN(C(=O)c2ccc3c(c2)N(Cc2ccc(C(F)(F)F)cc2)C(=O)c2ccccc2S3)CC1	-14.8%	-11.0%
95	CCN(C(=O)CSc1nnc(-c2cc3occc3n2C)n1-c1ccccc1C)c1ccccc1	-6.4%	-10.7%
96	FC(F)(F)c1cccc(CSc2ncnc3sc(-c4ccccc4)cc23)c1	9.8%	7.7%
97	CN(C)CCCN(Cc1cccc2ccccc12)Cc1cccc2ccccc12	-5.8%	-11.0%
98	COc1cccc(Cc2nc3ccccc3nc2SCC(=O)N2CCN(c3ccccc3)CC2)c1	-23.8%	1.9%
99	Cc1cc(C)c(NC(=O)C2=Cc3sc4c(c3CS2)CCCC4)c(C)c1	-6.8%	3.5%
100	CCOC(CCNC(=O)c1cc(-c2cccs2)nc2ccccc12)OCC	22.3%	36.6%[activator]
101	O=C(Nc1ccc(Cl)cc1)N1CCC(CN2CCCCCC2)CC1	17.7%	-3.0%
102	C/C(=N\NC(=O)c1ccccc1)c1ccccc1	121.6%[activator]	1.6%

This is a random part of the collection. About 0.53% of those tested had a hit in this group.
